# Bioassay records deposited in PubChem by several laboratories.
# RecA intein inh: Mtb RecA intein splicing inhibitors, primary screen, biochemical, fluorescence, HTS. Protein RecA (Mycobacterium tuberculosis (strain ATCC 25618 / H37Rv)), P9WHJ3. cell-free RecA intein splicing. inhibition, %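 (about 9 µM by stock and volumes)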. actives 0.75% (n = 290,000). AID 2221, 2009; in the data active means inhibition above about 30%; inconclusive means no clear call, values can overlap the other calls;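 further: 0% = vehicle wells and 100% = reference inhibitor control wells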
# Target sequence (P9WHJ3 whole entry, looked up): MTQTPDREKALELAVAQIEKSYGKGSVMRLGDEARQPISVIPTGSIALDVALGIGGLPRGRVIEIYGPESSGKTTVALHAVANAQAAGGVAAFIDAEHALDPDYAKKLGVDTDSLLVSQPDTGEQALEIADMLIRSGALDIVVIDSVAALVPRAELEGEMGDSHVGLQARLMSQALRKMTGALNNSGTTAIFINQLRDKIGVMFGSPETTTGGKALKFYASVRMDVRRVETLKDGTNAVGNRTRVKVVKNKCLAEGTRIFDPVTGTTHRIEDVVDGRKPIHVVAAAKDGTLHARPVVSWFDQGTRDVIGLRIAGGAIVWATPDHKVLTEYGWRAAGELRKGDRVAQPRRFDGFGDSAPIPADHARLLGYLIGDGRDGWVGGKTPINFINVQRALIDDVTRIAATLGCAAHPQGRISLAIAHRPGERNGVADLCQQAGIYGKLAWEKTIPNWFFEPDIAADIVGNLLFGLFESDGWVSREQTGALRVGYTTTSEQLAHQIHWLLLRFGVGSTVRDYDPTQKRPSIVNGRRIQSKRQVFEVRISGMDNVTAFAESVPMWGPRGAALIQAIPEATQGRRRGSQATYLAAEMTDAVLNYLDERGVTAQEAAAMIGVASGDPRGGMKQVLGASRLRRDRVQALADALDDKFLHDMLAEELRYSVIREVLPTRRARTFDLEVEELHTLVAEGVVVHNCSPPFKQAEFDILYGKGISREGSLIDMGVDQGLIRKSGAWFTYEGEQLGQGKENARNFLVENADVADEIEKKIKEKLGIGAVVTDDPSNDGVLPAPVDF
# Mtb betalactam: beta-lactam sensitization of Mtb H37Rv, H37Rv | M. tuberculosis H37Rv growth with meropenem, percent inhibition; hits of this screen are not shown here | inhibition, % at 25 µM | actives 0.27% (n = 330,000);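 active means about 74% or more and at least 40 points above the plate without the antibiotic, then above 30% in a dose series; inconclusive means first-round hits that could not be retested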;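 further: growth measured after seven days incubation then overnight dye step; 0% = bacteria only wells and 100% = bacteria with antibiotic; twin plates without the antibiotic show which effects depend on it; some results filed as inactive read as strong as hits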
# YopH inh: YopH tyrosine phosphatase inhibitors, primary screen, biochemical, fluorescence Ex485/Em525. YopH tyrosine phosphatase [Yersinia enterocolitica]. inhibition, %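 (about 10 µM by stock and volumes)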. actives 0.16% (n = 140,000);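 active means inhibition of 50% or more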;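 further: controls were vehicle for no effect and minimum signal wells for full effect; inactives centre near -20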
# Arbovirus anti: antivirals against arbovirus infection, primary screen, cell-based, full library, 10K replicate subset. arbovirus infection cell-based antiviral screen. inhibition, % at 10 µM. actives 0.37% (n = 200,000). AID 1251, 2008;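 active means inhibition from about 30%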;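 further: bluetongue infection of BSR cells; cell survival read as ATP light after 72 h; 0% = infected wells without compound and 100% = uninfected wells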
# Mtb H37Rv: M. tuberculosis H37Rv growth inhibitors, H37Rv strain (AID 1626). M. tuberculosis H37Rv growth inhibition; higher % means a stronger effect. inhibition, % at 10 µM, or IC50 in µM where a hit was titrated. actives 0.95% (n = 220,000);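 active means confirmed in a dose series; inconclusive means inhibition above 80% but not taken into the dose series; inactive means below 80% or under 30% at every dose of the series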;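 further: bacteria incubated seven days before Alamar blue readout; 0% = bacteria only wells and 100% = bacteria with antibiotic wells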
# Arbovirus anti repeat: recorded beside Arbovirus anti, whose call it bears; inhibition, %; measured here: 10K subset replicate screen; many hits read low in the repeat;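 first of two repeat runs on a subset; 0% = infected and 100% = uninfected wells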
# * marks the source's active call; other numbers are inactive results; ? = inconclusive; . = no result given; & = joins results of further samples. Only part of the results is shown; the hit share may differ from the screen's.
SMILES,RecA intein inh,Mtb betalactam,YopH inh,Arbovirus anti,Mtb H37Rv,others
N/C(=N\OC(=O)/C=C/c1ccccc1Cl)c1ccccn1,1.1,6,.,3,-1%,
Cc1ccc(N(Cc2ccccc2F)S(C)(=O)=O)cc1C,2.3,0,-24,-4,1%,
COc1ccc2oc(=O)c(C(=O)OCC(=O)c3ccc([N+](=O)[O-])cc3)cc2c1,-1.6,-1,.,-2,-4%,
CCc1ccc(/C=C2/C(=O)N(c3ccccc3)C(=S)N2CC(=O)OC)s1,-12,0,-1,-4,7%,
Cc1noc(NS(=O)(=O)c2ccc(N3Cc4ccccc4C3=O)cc2)c1C,2.1,-1,-16,6,-9%,Arbovirus anti repeat=9
Cc1ccc(CN2CCN(Cc3ccc(-n4cccn4)cc3C)CC2CCO)cc1 (centres undefined),-3.3,1,.,8,79%,
O=C(COC(=O)c1ccco1)c1ccc2ccccc2c1,7.6,4,-10,7,2%,
C=CCN(CC=C)S(=O)(=O)c1ccc(NC(=S)NC(=O)/C=C/c2cccc3ccccc23)cc1,-6.2,0,2,-4,3%,
C=CCc1ccc(OCCOCCNCCCC)c(OC)c1,-0.6,1,-13,2,2%,
O=C1c2oc3ccc(F)cc3c(=O)c2C(c2cccc(O)c2)N1CCCN1CCOCC1 (centres undefined),-2.3,-2,-35,5,-10%,Arbovirus anti repeat=6
O=C(CCNS(=O)(=O)c1ccc(Cl)cc1)N1CCCC1,-5.9,-1,.,.,.,
CC1CCN(Cc2csc(N)n2)CC1,-1.1,-17,0,3,-18%,
COc1cccc(N2CCN(S(=O)(=O)c3ccc4c(c3)NC(=O)C(C)C(=O)N4)CC2)c1 (centres undefined),0.4,3,.,.,.,
O=C(NCc1ccccc1)c1ccc(NC(=O)c2ccccc2F)cc1,-1.4,-4,.,.,.,
CCOC(=O)c1c(-c2cccc([N+](=O)[O-])c2)cn2ccccc12,2.1,0,.,-2,0%,
Cc1ccc(CN2CCN(Cc3cnn(-c4ccc(F)cc4)c3)CC2CCO)o1 (centres undefined),0.6,-2,.,1,-2%,
COC(=O)c1[nH]c2c(c1C)C(=O)CCC2,-2.1,3,-29,5,-8%,
CC(CCc1ccccc1)NC(=O)C1CCN(S(=O)(=O)c2cnc[nH]2)CC1 (centres undefined),.,-7,2,4,-6%,
O=[N+]([O-])c1ccc(S(=O)(=O)c2cccc(C(F)(F)F)c2)nc1,50*,100,.,.,.,
CC(O)CNc1nc2sc3c(c2c(=O)n1CCc1ccccc1)CCCCC3 (centres undefined),9.9,-7,0,-33,12%,
COC(=O)c1ccccc1S(=O)(=O)N1CCC(NC(=O)c2ccccc2)CC1,45*,4,.,.,.,
COc1cc(-c2cc(C(=O)Nc3ccc(S(=O)(=O)Nc4ncccn4)cc3)c3ccccc3n2)cc(OC)c1OC,-1.3,38,.,.,40%,
CCCCNC(=O)COC(=O)c1c2c(nc3ccccc13)CCC2,6.5,4,.,.,.,
COc1cccc(C(=O)Nc2ccc3nc(N4CCN(c5ncccn5)CC4)cc(C)c3c2)c1OC,.,91,-5,-15,<0.2µM*,Arbovirus anti repeat=-8
O=C1C(Nc2ccccc2)=CC(c2ccc(O)cc2)N1c1ccccc1 (centres undefined),0.4,-5,.,.,10%,

# Some of these compounds in order of formula weight, rising.
SMILES,RecA intein inh,Mtb betalactam,YopH inh,Arbovirus anti,Mtb H37Rv,others
O=C(COC(=O)c1ccco1)c1ccc2ccccc2c1,7.6,4,-10,7,2%,
C=CCc1ccc(OCCOCCNCCCC)c(OC)c1,-0.6,1,-13,2,2%,
O=C(CCNS(=O)(=O)c1ccc(Cl)cc1)N1CCCC1,-5.9,-1,.,.,.,
COC(=O)c1ccccc1S(=O)(=O)N1CCC(NC(=O)c2ccccc2)CC1,45*,4,.,.,.,
Cc1ccc(CN2CCN(Cc3ccc(-n4cccn4)cc3C)CC2CCO)cc1 (centres undefined),-3.3,1,.,8,79%,
COc1cc(-c2cc(C(=O)Nc3ccc(S(=O)(=O)Nc4ncccn4)cc3)c3ccccc3n2)cc(OC)c1OC,-1.3,38,.,.,40%,

# Later entries.
SMILES,RecA intein inh,Mtb betalactam,YopH inh,Arbovirus anti,Mtb H37Rv,others
COc1ccccc1N=Cc1nc(-c2ccccc2)oc1OC(C)=O,-0.6,-2,16,-4,-4%,
COC(=O)Cc1csc(N)n1,-0.2&1.3,-2&3,-36&-16,3&0,-22%&-5%,
O=C(c1ccc([N+](=O)[O-])cc1)n1nc(-c2ccccc2)nc1NCc1ccccc1,-1.2,61,-21,5,.,
CC1=C(C(=O)Nc2cccnc2)C(c2cccnc2)n2nc(-c3cccs3)nc2N1 (centres undefined),1.1,1,-29,-1,-5%,
Cc1ccc(C(=O)O)cc1NC(=S)NC(=O)c1ccc([N+](=O)[O-])cc1Cl,2.0,1,-26,-9,7%,
Cc1ccc(C2CC(c3ccccc3C)n3nc(N)nc3N2)cc1 (centres undefined),9.3,2,-30,7,-1%,Arbovirus anti repeat=2
CCCC(=O)Nc1ccc(C(=O)Nc2cc(C(F)(F)F)ccc2Cl)cc1,1.9,39,-31,8,11%,
O=C(Nc1ccccc1)C(=O)Nc1ccc2c(c1)N(C(=O)C1CC1)CCC2,-0.7,1,.,.,.,
O=C(COC(=O)c1cccc(S(=O)(=O)N2CCN(c3ccccc3)CC2)c1)NCC1CCCO1 (centres undefined),2.4,-1,.,.,5%,
COc1ccc(S(=O)(=O)N2CCOCC2)cc1NC(=O)CN1CCCC1,-2.2,-1,.,5,7%,
O=S(=O)(c1ccccc1)c1cnn(-c2ccccc2)c1-c1ccc(Cl)cc1,1.2,-4,-31,7,-4%,
Oc1c(C(c2cccs2)N2CCN(c3ccccc3)CC2)sc2ncnn12 (centres undefined),-4.3,0,-17,19,-3%,Arbovirus anti repeat=14
COc1ccc(OCC(=O)Nc2ccccc2O)cc1,3.0,31,0,-2,-7%,
COc1ccc2c(c1)c(=O)c(Br)c(C)n2Cc1ccccc1,2.7,11,-41,-8,10%,
O=C(NCc1ccccc1)c1ccc(CS(=O)Cc2ccc(Cl)cc2)o1 (centres undefined),-1.7,-2,.,.,.,
CCOC(=O)C1CCN(S(=O)(=O)c2ccc3c(c2)N(C(C)=O)CC(C)S3)CC1 (centres undefined),-0.2,1,.,.,.,
CC(C)(C)c1ccc(OCCN2CCCC2)cc1,-2.3,9,7,-16,-8%,
Cc1c(S(=O)(=O)c2ccccn2)c(N)n(Cc2ccccc2Cl)c1C,7.3,-6,.,.,-4%,
COc1ccccc1/C=C\C=N\n1c(C2CCCCC2)n[nH]c1=S,-0.1,-5,-45,6,-1%,
COc1cccc(C(=O)/C=C/Nc2ccc(S(=O)(=O)Nc3nc(C)cc(C)n3)cc2)c1,-17,0,-14,2,-6%,
CN(C(=O)CSc1nc2[nH]ncc2c(=O)[nH]1)c1ccccc1,-0.3,-4,.,.,.,
Cc1ccc(Cl)c(OCC(=O)OC(C)C(=O)NC2CC2)c1 (centres undefined),-0.9,1,.,.,.,
CSc1nc2nc3c(c(=O)n2[nH]1)CCC3,0.5,6,-15,2,-2%,
CCOC(=O)c1c(C)nc2c(c1-c1ccc(OC)cc1)C(=O)CC(C)(C)C2,1.0,1,-25,4,-4%,
Cc1ccc(NC(=O)CN(C)C(=O)CSc2nnnn2C)cc1,-0.7,4,.,.,12%,

# Brought forward from above: 2 entries; new compounds follow.
SMILES,RecA intein inh,Mtb betalactam,YopH inh,Arbovirus anti,Mtb H37Rv,others
CCOC(=O)c1c(C)nc2c(c1-c1ccc(OC)cc1)C(=O)CC(C)(C)C2,1.0,1,-25,4,-4%,
Cc1ccc(NC(=O)CN(C)C(=O)CSc2nnnn2C)cc1,-0.7,4,.,.,12%,
Cn1nccc1C(=O)Nc1ccc2c(c1)OCO2,1.6,0,.,.,.,
O=C(CSc1nnc(SCc2ccccc2)s1)N/N=C/C=C\c1ccco1,9.7,-2,-15,0,-6%,
CC(C)(C)[C@@H]1C=C(C(N)=O)O[C@H](OCCCCO)C1,-0.2,-5,.,.,-5%,
COc1ccc(-n2cc(CNCCc3nc(C)cc(C)n3)c(-c3ccccc3Cl)n2)cc1,-3.6,0,.,-7,6%,
Cc1oc2ccc(O)cc2c1C(=O)c1ccc([N+](=O)[O-])cc1,3.9,3,-17,2,12%,
COCCn1c(C)nnc1SCC(=O)Nc1ccccc1[N+](=O)[O-],-4.3,-15,.,3,-8%,
COc1ccc(/C=N/N=C2/SCC(=O)N2Cc2ccccc2)cc1,0.7,-7,.,.,1%,
COc1ccc(NC(=O)N[C@@H](CCSC)C(=O)O)cc1OC,0.6,-1,.,.,-11%,
N#CCNC(=O)c1cccn1-c1ncc(C(F)(F)F)cc1Cl,5.8,-1,.,7,-7%,
O=C(c1ccccc1F)c1cc2c(cc1[N+](=O)[O-])OCCO2,-1.1,0,.,-2,5%,
CCCS(=O)(=O)N1CCC(C(=O)NCCN(CC)c2ccccc2)CC1,-2.9,-18,-34,6,-3%,
COc1ccc([C@H]2[C@H](C(=O)OC(C)(C)C)N3N=Cc4ccccc4C3C23C(=O)c2ccccc2C3=O)c(OC)c1 (some centres undefined),1.9,3,-12,-12,-2%,
Cc1ccc(/C=N/n2c(-c3cccs3)n[nH]c2=S)cc1,-3.2,-11,1,8,18%,
O=C(Cc1ccccc1)N/N=C/c1ccccc1Cl,-0.7,?,-34,-1,8%,
Cc1nn(-c2ccccc2)c(N2CCCC2)c1/C=N/NC(=S)Nc1ccccc1F,-0.5,34,-24,16,?,
COC(=O)c1sccc1NC(=O)CC1C(=O)NCCN1C(=O)Nc1ccc(OCc2ccccc2)cc1 (centres undefined),3.8,28,.,.,-3%,
CCNC(=O)CSc1nc(-c2ccccc2)cs1,0.4,-4,.,18,15%,
CCc1ccc(C(=O)NC(=S)NCc2cccnc2)cc1,3.4,-10,.,.,.,
CN(C)CCCNc1oc(-c2cccc(Cl)c2)nc1C#N,0.7,46,-11,-16,11%,
CN(c1ccccc1)S(=O)(=O)c1nnc(NC(=O)COc2ccccc2)s1,1.5,-2,.,.,.,
CCOC(=O)C1CCN(C(=O)Nc2ccc(OC(F)(F)F)cc2)CC1,1.7,-4,.,.,-7%,
CCCN(CCC)CCCNC(=O)c1cc2cc3ccc(OC)cc3nc2o1,-3.0,2,-8,-9,.,
Cc1cccc(C(=O)NNC(=O)c2ccco2)c1,.,1,-26,4,0%,
Cc1noc(C)c1CN(C(=S)NC(C)C)c1ccccc1,-1.2,0,-38,4,-2%,
O=C(NC1CCCc2ccccc21)c1ccc2c(c1)OCO2 (centres undefined),3.2,4,.,-4,2%,

# (further entries)
SMILES,RecA intein inh,Mtb betalactam,YopH inh,Arbovirus anti,Mtb H37Rv,others
FC(F)(F)COc1ccc(-c2nnc(SCc3ccccc3)o2)cn1,1.6,2,.,.,8%,
CCc1noc(C)c1C(=O)N(C)CC(=O)Nc1ccc(F)c(F)c1F,-0.6,-11,.,.,.,
Cc1cc(N2CCOCC2)n2nc(-c3cccc(F)c3)cc2n1,-1.5,22,-18,4,6%,
COc1ccc(CCNCC(=O)Nc2ccc(OC(F)(F)F)cc2)cc1OC,3.1,-16,.,.,.,
CCOc1ccc(C2=NNC(c3cccs3)=Nc3ccc(OC)cc32)cc1OCC,10,22,3,-5,-5%,
Cc1ccc(-c2ccnc3[nH]n(-c4ccccc4)c(=O)c23)cc1,-4.4,4,.,.,.,
N#CCSc1nnc(-c2sc3ccccc3c2Cl)o1,9.6,-3,-18,4,12%,
COc1ccc(CCC(C)N2CCc3ccccc3C2)cc1 (centres undefined),-0.3,2,.,.,.,
COC(=O)c1c(NC(=O)C(Cl)Cl)sc2c1C(C(=O)OC)CC2 (centres undefined),0.0,52,.,.,8%,
Cc1[nH]c(=O)[nH]c(=O)c1/C=N/NC(=O)[C@@H](NC(=O)OC(C)(C)C)C(C)C,-2.5,-4,-36,6,-12%,
